Bioassay records deposited in PubChem by Fisher Drug Discovery Resource Center.
NPYLR7 agonist: mosquito NPYLR7 agonism; HEK293T NPYLR7/Galpha15, GCaMP6s calcium fluorescence; activation, % at 10 µM; 270,000 tested, 0.15% active; in the data active = activation above about 40%;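 also: 0% = vehicle and 100% = reference agonist at the receptor; some compounds past the cut are filed as inactive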
NPYLR7 agonist max-min: also measured in NPYLR7 agonist; calls as there; activation, %; measured here: Max-Min RFU normalised activation; some inactives read as strong as hits;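 span of the calcium signal over five minutes; 0% = vehicle and 100% = native peptide agonist; compound fluorescence can raise it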
Starred values were filed as active, the others as inactive; & = joins results of further samples. Some of the compounds tested, so the mix of outcomes need not match the whole.

SMILES	NPYLR7 agonist	NPYLR7 agonist max-min
CCCc1c(C(=O)N2CCOCC2)cnn1-c1cccc(Cl)c1	13	5
Cc1cnc(CN(C)Cc2cc3c(cc2OC(F)F)OCO3)o1	4	3
CN1CC2(CCN(C(=O)C3c4ccccc4-c4ccccc43)C2)OC1=O (stereo unspecified)	6	2
O=C1C2CCCN2C(c2ccc(Cl)cc2)N1c1nccs1 (stereo unspecified)	7	3
C=CCN(Cc1nc(-c2cc(C)c(OC)cc2C)oc1C)C1CCS(=O)(=O)C1 (stereo unspecified)	-8	-10
NC(=O)c1ccc(NC(=O)CN2CCC(Cn3c(COc4ccccc4)nc4ccccc43)CC2)cc1	0	-1
COc1ccc(C(=O)N2CCCC2)c(OC2CCN(Cc3cc4ccccc4s3)CC2)c1	19	6
CCCCCCCCC(=O)N(CCCOC)CC(=O)NCC(=O)Nc1ccc(C)cc1	17	22
CC(C)c1nnc(NC(=O)c2ccc(N3CCOC3=O)cc2)s1	9	6
COC(=O)C1C(=O)NCC1c1ccccc1 (stereo unspecified)	-2	-2
O=C(CSc1ccc(C(=O)NCCc2ccc(O)cc2)cn1)c1ccc(Cl)cc1	-12	-17
Cc1cc(C)nc(N=C(N)N2CCCCC2)n1	-1	-7
Cc1cc(NC(C)CN2CCOCC2)nc(-c2ccccc2)n1 (stereo unspecified)	0	-8
COc1ccc(/C=C2\C=C(c3ccccc3)N(c3ccc4ccccc4c3)C2=O)cc1Br	12	16
CCOC(=O)Nc1ccc(S(=O)(=O)Nn2cnnc2)cc1	1	0
S=c1n(CN2CCCC2)nc(-c2c[nH]c3ccccc23)n1CC1CCCO1 (stereo unspecified)	-1	36
O=C(CC1COCCN1)NCc1ccc(-c2ccccn2)s1 (stereo unspecified)	7	3
NC(=O)CNC(=O)c1cccc(NC(=O)C=C2CCCCC2)c1	-3	-4
Cc1cc(NS(=O)(=O)CCC(C)C)no1	5	465
CC1(C(=O)NS(=O)(=O)c2ccc(Br)cc2)CCN1C(=O)CC1CCCCC1 (stereo unspecified)	0	0
O=C(O)CCC(=O)N1N=C(c2ccc(Br)cc2)CC1c1cccc([N+](=O)[O-])c1 (stereo unspecified)	7	8
COc1ccc(OCCCSc2ncnc3sc4c(c23)CCC4)cc1	-6	-10
Cc1cc(Br)oc1C(=O)Nc1ccc(S(C)(=O)=O)nc1	-14	-19
CCCN(CC(=O)N(Cc1ccccc1)Cc1sccc1C)C(=O)c1cc(C(F)(F)F)cc(C(F)(F)F)c1	-8	-2
COCCc1nc2ccc(C(=O)NCc3cc4cc(OC)ccc4[nH]3)cc2o1	1	1
Cc1ccc(S(=O)(=O)Nc2nc3ccccc3nc2-n2cc[n+](C)c2)cc1	-4	-8
CC(C)N(Cc1nccn1Cc1ccc(Cl)cc1Cl)C(=O)C1CC1	2	6
CC(=O)N(C=CC(=O)C(F)(F)F)c1ccnn1C1CCCCC1	2	8
CC(=O)Nc1ccc(NS(=O)(=O)c2ccc(C)cc2)c([N+](=O)[O-])c1	-6	-9
N#CC1=C(c2ccc(Cl)c(Cl)c2)OCSC1=S	0	-4

5 compounds picked at random from those above:
SMILES	NPYLR7 agonist	NPYLR7 agonist max-min
CC1(C(=O)NS(=O)(=O)c2ccc(Br)cc2)CCN1C(=O)CC1CCCCC1 (stereo unspecified)	0	0
O=C(O)CCC(=O)N1N=C(c2ccc(Br)cc2)CC1c1cccc([N+](=O)[O-])c1 (stereo unspecified)	7	8
CC(C)c1nnc(NC(=O)c2ccc(N3CCOC3=O)cc2)s1	9	6
CC(C)N(Cc1nccn1Cc1ccc(Cl)cc1Cl)C(=O)C1CC1	2	6
CC(=O)N(C=CC(=O)C(F)(F)F)c1ccnn1C1CCCCC1	2	8

Carrying on.
SMILES	NPYLR7 agonist	NPYLR7 agonist max-min
CC1CC(=O)N(C)c2ccccc2N1C(=O)Cc1ccccc1F (stereo unspecified)	-2	-5
CCc1nn(C)c(C(=O)O)c1N	-9	-17
CCc1ccc(-c2cc3c(=O)n(Cc4nc(-c5ccccc5)oc4C)ccn3n2)cc1	2	-6
CC(=O)OCC(=O)CC12CC3CC(CC(C3)C1)C2	16	21
Cn1ncc(C(=O)NCc2ccc(-c3ncc(-c4ccc(F)cc4)[nH]3)cc2)c1Cl	2	7
CCOC(=O)CN1CCCC1c1ccccn1 (stereo unspecified)	3	-8
Cc1cc(C)cc(NC(=O)CC(=O)N(Cc2ccncc2)Cc2ccco2)c1	-1	-5
Cc1ccc(CN(CC(O)c2ccccc2)C(C)C)s1 (stereo unspecified)	5	2
Cc1csc(=O)n1CCN1CCC(CCc2ccccc2)CC1	-2	-3
O=C(CN(CC1CCCO1)C(=O)Nc1ccc(Cl)cc1)N(Cc1ccc2c(c1)OCO2)Cc1cccs1 (stereo unspecified)	-3	9
COCCN(Cc1nc2ccccc2o1)C(=O)C(OC(C)=O)c1ccccc1 (stereo unspecified)	1	-3
O=C(CSCc1ccccc1F)Nc1c(F)cccc1F	-6	-6
CS(=O)(=O)N1CCC(Nc2ccc3ccc(F)cc3n2)CC1	-31	-29
O=C(NCC1CCC2(CCN(Cc3cccnc3)CC2)O1)c1ccc(-c2ccc(F)cc2)cc1 (stereo unspecified)	25	7
O=C(NC1CCS(=O)(=O)C1)c1ccc2c3c(cccc13)CC2 (stereo unspecified)	1	-1
Cc1nc2c(-c3ccccc3)c(C)nn2c(NCCCN(C)C)c1Cc1ccccc1	-4	-7
O=C1OC(/C=C/c2cccc([N+](=O)[O-])c2)=NC/1=C\c1c(F)cccc1Cl	-1	-5
CC(C)SCC(=O)N1C[C@@H](C(=O)O)C[C@H](C(=O)NCc2ccccn2)C1	-2	-5
O=C(NC(c1ccc2c(c1)OCO2)c1ccccn1)C1CCN(Cc2cccc(C(F)(F)F)c2)CC1 (stereo unspecified)	10	-1
CNc1cnc(-c2ccc(O)cc2C)cn1	3	2
CCOCC(=O)Nc1nc2ccccc2nc1N1CCCC1	5	2
CN1CCN(C(=O)c2ccnc(N3CC(c4ccccn4)C3)c2)CC1	7	1
COc1ccccc1CC1(C)C(=O)Nc2c(C)cc(Cl)cc21 (stereo unspecified)	3	5
Cc1ccc(NC(=O)c2csc(CSc3nnc(-c4ccncc4)n3-c3ccccc3)n2)cc1C	-7	12
CCOc1ccc(-c2ccnc(N3CCN(C(=O)c4c(C)cc(C)cc4C)CC3)n2)cc1	6	0
CCOc1ccc(-n2c(C(CC)N(CCOC)C(=O)c3ccc(Cl)c(Cl)c3)nc3ccccc3c2=O)cc1 (stereo unspecified)	-1	11
Cc1nn2c(C(F)(F)F)cc(-c3ccc(Cl)cc3)nc2c1C(=O)N1CCCc2ccccc21	-6	-13
CN1C(=O)/C(=C2\SC(=S)N(CCC(=O)O)C2=O)c2ccccc21	-3	-8
Cc1ccc(C(C)NC(=O)CN2CCC(O)(Cn3ccnc3)CC2)cc1 (stereo unspecified)	23	8
CC(C)c1n[nH]c2c1CN(C(=O)c1noc3c1CCCC3)CC2	19	-3
CCCc1noc(CN(C)Cc2cccc(-n3cccn3)c2)n1	3	1
O=C(O)CCCCCN1C(=O)CSC1=S	3&-1	11&-4
COc1ccc(C(=O)NNC(=O)c2ccccc2SCc2cc(C)no2)cc1OC	-7	-7
CCC(C)NC(=O)C(NC(=O)c1ccccc1Cl)C1CCN(C(=O)c2cccc(OC)c2)CC1 (stereo unspecified)	-9	-5
Cc1cccc(CC(=O)N2CC(=O)Nc3ccc(F)cc3C2c2ccc(F)cc2)c1 (stereo unspecified)	-6	-9
O=C(c1cc(Cl)ccc1F)N1CCN(CC(=O)N2CCNC2=O)CC1	0	-1
COC(=O)n1c(C)c(Br)c2cc(OC)c(Br)cc21	2	8
O=c1[nH]c2c(s1)C(c1ccc(OCc3ccccc3)cc1)C1C3CCC(C3)C1S2 (stereo unspecified)	4	14
CCC(c1nc2ccccc2c(=O)n1-c1ccc(OC)cc1)N(CCN(C)C)C(=O)Nc1ccc(Br)cc1 (stereo unspecified)	14	12
COCCn1c(C)cn2c3c(=O)n(CCc4ccccc4)c(=O)n(C)c3nc12	5	10
N#Cc1c(N)n(-c2ccc3c(c2)OCO3)c2nc3ccccc3nc12	-2	-2
O=C1CCC(=O)N1Cc1nc(-c2ccc(C3CCCCC3)cc2)cs1	-2	-206
CC(Oc1cccc(Cl)c1)C(=O)N(C)Cc1ccc(N(C)C)cc1 (stereo unspecified)	6	4
CCOC(=O)CCc1c(C)nc2ncnn2c1N1CCN(S(=O)(=O)c2cc(Cl)ccc2OC)CC1	34	23
Cc1cccc(Nc2ncccc2C(=O)NCCCOc2cccc([N+](=O)[O-])c2)c1C	-6	-20
O=C(O)C1CCN(C(=O)C2(c3cccc(F)c3)CCCC2)CC1	5	2
CCc1nccn1CCC(=O)N1CCC2(CCCN(CC3CCC3)C2=O)C1 (stereo unspecified)	-1	2
Cc1ccc(NC(=O)CC(=O)NC(C)CCc2ccco2)cc1 (stereo unspecified)	3	1
C#CC(CC)(CC)NC(=O)c1ccc(S(C)(=O)=O)cc1	11	7
Nc1c(C(=O)CSc2nnc(C3COc4ccccc4O3)o2)c(=O)[nH]c(=O)n1C1CC1 (stereo unspecified)	6	6

Compound profiles (already shown). Screens in order: NPYLR7 agonist, NPYLR7 agonist max-min
Results for CCOC(=O)CCc1c(C)nc2ncnn2c1N1CCN(S(=O)(=O)c2cc(Cl)ccc2OC)CC1 : 34, 23
Results for N#Cc1c(N)n(-c2ccc3c(c2)OCO3)c2nc3ccccc3nc12 : -2, -2
Results for O=C(O)C1CCN(C(=O)C2(c3cccc(F)c3)CCCC2)CC1 : 5, 2
Results for CC(Oc1cccc(Cl)c1)C(=O)N(C)Cc1ccc(N(C)C)cc1 (stereo unspecified) : 6, 4
Results for Cc1cccc(Nc2ncccc2C(=O)NCCCOc2cccc([N+](=O)[O-])c2)c1C : -6, -20

Going on with the list:
SMILES	NPYLR7 agonist	NPYLR7 agonist max-min
COc1ccc(S(=O)(=O)NCCCN2CCOCC2)cc1N1CCN(S(=O)(=O)c2cccc(F)c2)CC1	26	13
CCOc1cc(C(=O)Nc2cc(C)nn2-c2nc(C)cc(=O)[nH]2)cc(OCC)c1OCC	10	3
CCCCN(CC(=O)Nc1c(-c2ccccc2)c(C)nn1-c1ccc(C)cc1)C(=O)Nc1cccc(OC)c1	-3	2
CC(C)COC(=O)Nc1nnc(Cc2ccc(F)cc2)s1	2	1
CC(=O)N(CC1=CCCN(Cc2cc(C)on2)C1)C1CCCc2ccccc21 (stereo unspecified)	19	17
O=C(c1ccc(Cl)cc1)N1N=C2CCCCC2C1(O)C(F)(F)F (stereo unspecified)	-1	4
O=C(NC1CCCCC1)c1noc2c1CCCC2	2	1
CCOc1ncccc1Cn1ccnc1-c1nc2ccccc2n1C	-10	-6
COCCN(CCC(=O)N1CCCC1)c1nc(-c2cccs2)nc2ccccc12	34	29
COc1ccc(COC(=O)c2cccc3cn[nH]c23)cc1	-6	-4
CC(C)N1CCC(=O)N(Cc2ccc(CN3C(=O)CCN(C(C)C)C3=O)cc2)C1=O	12	4
CC(NC(=O)c1cc2c([nH]c1=O)CC(C)(C)CC2=O)c1noc(-c2ccc(Cl)cc2)n1 (stereo unspecified)	7	2
CCC(CC)C(=O)N1CCC2(CC1)CN(CCc1ccccc1)CCN2C	-1	-3
O=C1CCCc2c1[nH]c1ccc(F)cc21	4	2
CC(c1ncc(-c2ccccc2)o1)N1CCN(C(=O)C(C)(C)C)CC1 (stereo unspecified)	-5	-5
CC1(C)O[C@@H]2C[C@@](OCc3cccc(C(F)(F)F)c3)(C(=O)NC3CC3)CC(OCc3ccccc3C#N)[C@@H]2O1 (stereo partly specified)	5	15
O=C(Cc1csc(-n2cccc2)n1)Nc1cccnc1	4	3
Cc1cnc(N(C)Cc2cc(C3CC3)n[nH]2)nc1N(C)C	16	12
COc1ccccc1CN(Cc1cccc(C)c1)C(=O)c1ccc(=O)n(C)c1	-1	10
O=Cc1csc(-c2ccc(C(F)(F)F)cc2)n1	8	2
O=C(NCc1ccccc1)c1cc(NC(=O)C2CCCCC2)ccc1N1CCCC1	5	6
Cc1cc(N2C(=O)c3oc4cc(C)c(C)cc4c(=O)c3C2c2cccc([N+](=O)[O-])c2)no1 (stereo unspecified)	-2	-3
Cc1ccc([N+](=O)[O-])cc1NC(=O)C1COc2ccccc2O1 (stereo unspecified)	-15	-11
Cc1cc(C)c(C)c(OCc2nc(CN(CCN3CCOCC3)C(=O)c3cccs3)cs2)c1	-5	-2
Cc1ncc(C(=O)NCCCn2ccc3ccccc32)c(C)n1	15	11
COc1ccc(C(=O)N=c2sc(C)cn2Cc2cccc(C(=O)NCc3ccco3)c2)cc1OC	8	7
CN1CCN(c2nc3ccccc3nc2NS(=O)(=O)c2cccs2)CC1	-1	24
COC(=O)CCc1c(C)nn(-c2ccc(C(=O)Nc3cccc(C(F)(F)F)c3)cc2)c1C	6	3
CCCN(C)Cc1c(C(=O)N2CCN(C3CCCCC3)CC2)nc2ccccn12	4	0
Cc1c(C)n2c3c(=O)n(C)c(=O)n(C)c3nc2n1CCN(C)Cc1ccccc1	1	6
CCc1ccc(C(=O)CCC(=O)N2CCN(c3ncccn3)CC2)cc1	-7	-8
CCN(CC)C(=O)Oc1ccc2c(ccn2Cc2cc(C(F)(F)F)cc(Cl)c2F)c1-c1ccc(F)c(F)c1	10	0
CN(Cc1ccc(Br)s1)C(=O)c1ccc[nH]c1=S	8	5
CC(C)(C)C(=O)CSc1nnc(-c2ccc3ccccc3n2)o1	26	6
CCN(CC)CCn1c(=O)c2[nH]cnc2n(C)c1=O	4	0
CCn1c(=N)n(CCO)c2ccccc21	-1	-2
O=C(C1CC1)N1CCCC(OCc2ccc(OC(F)(F)F)cc2)C1 (stereo unspecified)	-2	2
CCOC(=O)C1CCCN(c2ccc(S(=O)(=O)Cc3ccc(Cl)cc3)nn2)C1 (stereo unspecified)	-2	-6
